PrP 5UTR inh: suppresses PrP 5' UTR mRNA reporter expression; cell-based PrP 5' UTR mRNA reporter, plate reader; inhibition, % (concentration not given with the values); actives 0.35% (n = 340,000); AID 488862;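 active = every replicate at 50% or more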;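 also: 0 = median of the neutral control wells; tested in H4 reporter cells; numbers are from one replicate; inactives centre near -14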
Sa RN4220 lethal: kills Staphylococcus aureus RN4220; inhibition, % (concentration not given with the values); actives 0.33% (n = 330,000); S. aureus RN4220 growth, OD600, 16 h;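 active = z-score of -3 or lower and OD600 up to 0.18 on both plates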;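 also: plate controls were untreated cells for no effect and reference antibiotic for full effect; stock transfer was 100 nL into about 80 µL; one replicate is shown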
Autofluor counter: compound fluorescence in toxin protease inhibitor counterscreen | AID 624483 | fluorescence intensity (no concentration beside the values) | compound autofluorescence counterscreen, microsphere flow cytometry; hits give high values | actives 3.1% (n = 360,000);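 active = at least 3 SD above the mean of all compounds, about 16000 in these data; inconclusive = too few beads counted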;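 also: 100 nL of 1 mM stock went into each well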
ugtP null kill: kills S. aureus RN4220 lacking UgtP | S. aureus RN4220 ugtP deletion, OD600 growth, 16 h; some inactives read as strong as hits | growth inhibition, % (test concentration not listed) | actives 0.54% (n = 330,000);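 active = z-score under -3 and OD600 up to 0.15 on both plates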;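 also: plate controls were untreated wells for no effect and antibiotic for full effect; wells of about 80 µL received 100 nL stock; the first replicate is given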
BJeLR lethal: BJeLR cell viability loss. BJeLR (HRASV12) viability, CellTiter-Glo ATP luminescence, 48 h; reference of the scale not given here. inhibition, % (no concentration beside the values). actives 0.17% (n = 300,000);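 active = replicate mean above 50%; inconclusive = above 50% but judged a plate artefact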;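 also: 50 nL library stock added to about 25 µL; numbers are from one replicate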
Mtb hypoxia inh: reduces hypoxia-regulated biosensor signal in M. tuberculosis | M. tuberculosis hypoxia-regulated fluorescent reporter, fluorescence | fluorescence inhibition, % (concentration not given with the values) | actives 0.1% (n = 300,000) | AID 1159583;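 active = 35 to 45% if threefold the growth effect, above 45% if 1.5-fold the growth effect; inactive = the rest, general growth blockers included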;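 also: wells of about 50 µL received 100 nL stock; 0% = vehicle wells and 100% = reference inhibitor wells; whole bacteria with a GFP reporter of the hypoxia response; strong numbers were not always called active; many hits fall short of the cut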
Mtb hypoxia inh growth: also measured in Mtb hypoxia inh; calls as there; growth inhibition, %; measured here: M. tuberculosis growth (absorbance);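 0% = vehicle and 100% = reference antibiotic; read after six days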
* hit, by the source's call; ? = inconclusive; . = no result given; & = joins results of further samples.

SMILES	PrP 5UTR inh	Sa RN4220 lethal	Autofluor counter	ugtP null kill	BJeLR lethal	Mtb hypoxia inh	Mtb hypoxia inh growth
O=C(NCCN1CCN(C(=O)c2ccc([N+](=O)[O-])cc2)CC1)C(=O)NCc1ccccc1	-20	2.0	5899	3	5	2	3
O=C(CN1CCC(n2nnc3cc(C(F)(F)F)ccc32)CC1)Nc1ccc2c(c1)CCC2	-18	-1.5	2280	-24	9	-3	3
O=C(O)CNc1ccc(S(=O)(=O)C(F)(F)F)cc1[N+](=O)[O-]	-13	4.7	3657	-11	6	3	-8
O=C(CN1C(=O)NC(Cc2ccccc2)C1=O)Nc1ccccc1 (stereo not given)	-35	-2.1	2927	-3	1	-1	8
Cc1nc2c(o1)CCc1ccccc1C2N1CCN(C)CC1 (stereo not given)	1&-25&-4	2.4&-0.9&2.5	2917&5503&2371	1&-5&0	-6&-4	3&5&8	7&12&13
CC1CCN(S(=O)(=O)c2ccc3c4c2CC(=O)N4CC(C)S3)CC1 (stereo not given)	-6	.	5777	.	3	.	.
O=C(NC1CC1)C1=C[C@@H](c2ccccc2)C[C@@H](OCCCCO)O1	-1	.	2912	.	-3	.	.
CCCCC(=O)Nc1ccc(N2CCN(S(C)(=O)=O)CC2)cc1	-7	2.2	3663	4	-10	.	.
COc1cc(OC)cc(C(=O)Nc2ccc(-n3cnnn3)c(C)c2)c1	-84	8.6	8152	0	5	4	7
CC1CC(C)(C)CC2(C1)NC(=O)N(CC(=O)NCCc1ccc3c(c1)OCCO3)C2=O (stereo not given)	-27	-1.9	4201	7	4	16	5
CCOC(=O)c1c(NC(=O)C(=O)N/N=C(\C)c2ccc(OC)cc2)sc2c1CCCCC2	-36	.	10885	.	3	.	.
Cn1c(SCC(=O)NNC(=O)Cc2ccccc2)nc2ccccc2c1=O	-14	2.2	2675	2	3	6	6
CCS(=O)(=O)NCC(c1ccco1)N1CCN(c2ccccc2)CC1 (stereo not given)	-10	4.3	9566	5	-2	-1	-2
CC(C)CC(CC(C)C)=NNC(=O)c1ccc2c(c1)OCO2	-22	19	3890	9	36	-3	-2
COc1ccc(NC(=S)N(CCCN2CCCC(C)C2)Cc2cccs2)cc1 (stereo not given)	-14	-0.3	3002	16	6	10	2
CCc1ccc(N2C(=O)CC(Cn3nc(C)cc3C)C2=O)cc1 (stereo not given)	0	3.7	4898	9	-12	4	6
Cc1ccc(OCCn2cc(Br)c(=O)[nH]c2=O)cc1	-16	2.1	7838	-1	4	10	8
CCCCN(C(=O)C1=NN(c2cc(C)ccc2C)C(=O)CC1)c1c(N)n(CCC)c(=O)[nH]c1=O	.	3.7	6320	0	.	6	11
CC(C)(C)NC(=O)C(=O)NNC(=O)c1ccc(C(C)(C)C)cc1	-10	-0.1	2507	-14	-2	-11	15
CCCn1c(=O)c2c(C(F)(F)F)cc(-c3cccs3)nc2n(CCC)c1=O	-11	2.5	8507	8	-3	3	8

Entries of single compounds, quoted from the list.
O=C(CN1C(=O)NC(Cc2ccccc2)C1=O)Nc1ccccc1 (stereo not given) across the screens: PrP 5UTR inh = -35; Sa RN4220 lethal = -2.1; Autofluor counter = 2927; ugtP null kill = -3; BJeLR lethal = 1; Mtb hypoxia inh = -1; Mtb hypoxia inh growth = 8
CCS(=O)(=O)NCC(c1ccco1)N1CCN(c2ccccc2)CC1 (stereo not given) across the screens: PrP 5UTR inh = -10; Sa RN4220 lethal = 4.3; Autofluor counter = 9566; ugtP null kill = 5; BJeLR lethal = -2; Mtb hypoxia inh = -1; Mtb hypoxia inh growth = -2
CC(C)CC(CC(C)C)=NNC(=O)c1ccc2c(c1)OCO2 across the screens: PrP 5UTR inh = -22; Sa RN4220 lethal = 19; Autofluor counter = 3890; ugtP null kill = 9; BJeLR lethal = 36; Mtb hypoxia inh = -3; Mtb hypoxia inh growth = -2

Next section
SMILES	PrP 5UTR inh	Sa RN4220 lethal	Autofluor counter	ugtP null kill	BJeLR lethal	Mtb hypoxia inh	Mtb hypoxia inh growth
CCCC1=NN(c2ccc([N+](=O)[O-])cc2)C(=O)/C1=C\N(C)C	10	8.7	2369	4	-4	6	6
CC(C)(C)c1nc[nH]c(=O)c1Br	-37	5.7	8712	3	14	2	1
O=C(c1ccccc1)N(C(=O)c1ccccc1)N1CCCC1	-20	1.6	4116	3	.	11	7
O=C(CSc1nnc(CNC(=O)c2c(F)cccc2Cl)o1)NCc1ccccc1	-2	4.8	4620	14	-13	0	-6
CCOc1ccc(-c2ncncc2-c2ccccc2OC)c(O)c1	-10	0.6	3787	6	1	-4	10
O=S(=O)(N=C(Nc1ccccn1)c1ccccc1)c1ccc(Cl)cc1	.	4.2	.	2	.	6	10
CC(=NCCN(C)C)c1c(O)n(Cc2ccccc2)c(=O)[nH]c1=O	-5	4.7	4434	9	0	7	8
CCC(CC)C1=NN2C(=N)/C(=C/c3ccc(OC(=O)c4ccco4)cc3)C(=O)N=C2S1	-3	16	5073	11	7	2	-5
Cc1cccc(NC(=O)Cc2ccc(F)cc2)c1	-25	-0.6	2830	-1	-15	.	.
CCc1cccc(C)c1NC(=O)c1cc(=O)[nH]c2ccc(S(=O)(=O)N3CCOCC3)cc12	-7	3.9	?	-1	.	-4	2
COc1ccc(S(=O)(=O)N2CCOC23CCN(S(=O)(=O)c2ccc(C)cc2)CC3)cc1	-15	4.9	4790	9	7	7	7
CC(C)CNC(=O)c1cc([N+](=O)[O-])ccc1N1CCOCC1	-34	5.5	2264	12	11	10	7
O=S(=O)(NC1CCCCC1N1CCN(c2ccccc2F)CC1)c1ccc(Cl)cc1 (stereo not given)	-8	-2.7	5413	5	3	4	19
CCc1ccc(-n2c(SCc3cc(=O)n4cc(Br)ccc4n3)nc3[nH]ncc3c2=O)cc1	-12	3.6	3049	-5	5	-26	-2
CCOC(=O)Cn1nnc2c(sc3nc4c(c(-c5ccccc5)c32)CCC4)c1=O	-12	2.4	2503	5	2	5	8
C#CCOCCOCCOCCNc1nc(N2CCN(C(=O)C(CCC(=O)O)n3cc(C(N)CCCCN)nn3)CC2)nc(N2CCN(C(=O)C(CCCCN)n3cc(C(N)CC(N)=O)nn3)CC2)n1 (stereo not given)	.	3.1	.	3	.	4	-1
CC(C)(C)C(=O)Nc1nnc(SCc2ccc(F)cc2)s1	-54	17	5916	-9	0	18	8
Cc1ccc(Cl)cc1NC(=O)CCS(=O)(=O)c1cccc2nonc12	-17	-4.7	3730	-4	0	2	0
COc1ccc(C=NNC(=O)c2cc(Br)ccc2O)cc1Cn1cc(Cl)cn1	.	7.3	.	-7	.	0	0
C=CCSc1ccc(S(=O)(=O)N2CCN(C)CC2)cn1	-17	0.3	3693	-2	.	3	-6
CC1CCC(=O)N(CCC(N=[N+]=[N-])c2ccccc2)CC1 (stereo not given)	.	2.3	.	1	.	3	15
CCOC(=O)c1c[nH]c2c(C(F)(F)F)cccc2c1=O	-31	1.6	4593	-1	-7	0	-2
C/C(C=NNC(=O)c1cc(-c2ccccc2)nc2ccccc12)=C\c1ccco1	.	-2.7	.	-3	.	-2	-6
Cc1cccc(-n2c(=O)[nH]c3c(C(N)=O)nc(-c4ccccc4Cl)nc32)c1	-6	.	4194	.	-4	.	.
CC1=CCC2COC(c3ccc[n+](Cc4ccccc4)c3)C1C2 (stereo not given)	-29	-2.3	3636	17	12	6	7
CCOc1ccc(CNc2cccc(SC)c2)cc1	-28	6.7	4607	23	5	0	3
CCN(CC)C(=O)/C=C/c1ccc(OC)c(S(=O)(=O)N2CCCCC2)c1	-13	3.0	2236	-4	-3	4	1
CC(C)(C)OC(=O)NN=C(c1ccc(O)cc1)c1ccc(O)cc1	2	99*	5814	99*	-5	11	0
COc1cccc(-n2ccnc2SCC(=O)Nc2cc(C)on2)c1	3	1.9	5057	5	-1	-3	-3
N#C/C(=C\c1ccccc1Cl)C(=O)NC(=O)Oc1ccccc1	-22	19	6500	3	2	1	-2
CCOc1ccc(S(=O)(=O)NCCC(=O)NC2CCN(Cc3ccccc3)CC2)cc1	-63	1.9	?	9	16	4	-2
Cn1c(O)c(N=Nc2ccccc2)c2ccccc21	-15	0.6	3119	27	7	0	-8
CCOc1ccccc1NC(=O)CSc1nnc(CNC(=O)COc2ccc(Cl)cc2)o1	-28	-3.8	2840	-5	-8	.	.
O=C(COC(=O)CCc1ccc(S(=O)(=O)N2CCOCC2)cc1)Nc1ccccc1[N+](=O)[O-]	-2	4.0	4401	3	.	-4	3
NC(=O)[C@H]1CC2(CC(c3cccc(NC(=O)COc4ccc(Cl)cc4)c3)=NO2)CN1C(=O)C(c1ccccc1)c1ccccc1 (stereo not given in full)	-27	.	3940	.	0	.	.
CCOc1ccccc1-n1cnc(C#N)c1N	-31	4.8	4094	1	-8	10	5
CC(C)(C)NCCCOc1ccc(Cl)cc1C(C)(C)C	.	-4.2	.	-12	3	-1	-7
CCOC(=O)C(C)Sc1nc2c([nH]c3ccccc32)c(=O)n1C (stereo not given)	-12	5.8	6693	-15	-8	-5	-6
Cc1c(Cl)cccc1NC(=S)NCCCN(C)C	-5	3.2	2806	6	-3	1	7
O=C1C2C3c4ccccc4C(Br)(c4ccccc43)C2C(=O)N1c1ccccc1O (stereo not given)	-1	1.1	2349	-21	-6	-2	9

Part of the list above with just Mtb hypoxia inh and PrP 5UTR inh:
compound | Mtb hypoxia inh | PrP 5UTR inh
CC1CCC(=O)N(CCC(N=[N+]=[N-])c2ccccc2)CC1 (stereo not given) | 3 | .
O=C(COC(=O)CCc1ccc(S(=O)(=O)N2CCOCC2)cc1)Nc1ccccc1[N+](=O)[O-] | -4 | -2
CC(C)(C)NCCCOc1ccc(Cl)cc1C(C)(C)C | -1 | .
CCOc1ccc(S(=O)(=O)NCCC(=O)NC2CCN(Cc3ccccc3)CC2)cc1 | 4 | -63

(further entries)
SMILES	PrP 5UTR inh	Sa RN4220 lethal	Autofluor counter	ugtP null kill	BJeLR lethal	Mtb hypoxia inh	Mtb hypoxia inh growth
O=C(Nc1ccc(S(=O)(=O)Nc2ncccn2)cc1)c1ccc(N2CCCC2=O)cc1	1	1.9	4955	1	13	16	24
Cc1ccc(OCC(=O)N/N=C\c2c(C)[nH]n(-c3ccccc3)c2=O)c([N+](=O)[O-])c1	-6	.	2284	.	4	.	.
CCCCNC(=O)Nc1cc(C(=O)OC)ccc1Cl	-20	-0.3	5040	-2	6	.	.
O=C(O)Cc1n[nH]c(=O)c2ccccc12	-21	0.8	2689	6	13	12	-2
COC(=O)C1=C(C)N(Cc2ccc(C)cc2)C(=O)/C1=C\c1ccc(O)c(OC)c1	4	12	2280	-15	-1	.	.
Cc1cc(C)cc(N2C(=O)NC(=O)/C(=C\c3cccn3-c3ccccc3)C2=O)c1	-14	.	6580	.	2	.	.
Cc1nnc(NC(=O)CSc2ccccn2)s1	-25	-2.1	11947	-7	.	-11	6
O=C(CN1C(=O)COc2ccccc21)NCCN1CCOCC1	-16	2.1	3366	8	-2	14	4
Cn1c(Cc2ccccc2)nnc1SCc1nc2ccccc2c(=O)[nH]1	2	4.6	1924	8	1	3	-8
CCOc1ncccc1C(=O)Nc1ccccc1N1CCOCC1	-4	4.0	3815	2	.	6	8
O=S(=O)(Nc1cccc(-n2cnnn2)c1)c1ccc(F)cc1	-5	0.4	?	0	.	-6	14
O=C(CC12CC3CC(CC(C3)C1)C2)N1CCN(S(=O)(=O)c2cccs2)CC1	-21	0.3	3414	14	4	9	3
O=C1Nc2ccccc2Nc2ccc([N+](=O)[O-])cc21	-4	-3.5	3904	10	3	-5	1
N#CC(c1ccc(Cl)cc1)N1CCOCC1 (stereo not given)	-17	1.4	3401	0	4	5	-3
CNC(=O)c1cc(C(=O)c2ccc(F)cc2C(F)(F)F)c[nH]1	-25	1.0	3472	-1	5	-8	-1
COc1cccc(-n2nnc(S(=O)(=O)c3ccc(C)cc3)c2N)c1	-19	3.8	5597	8	2	-10	4
